From PubChem BioAssay
KSHV LANA nucl = LANA-nucleosome interaction inhibition | 0.3% of 51,000 active | AID 720717 | FITC-LANA1-23 / chicken nucleosome fluorescence polarization; active compounds read low | z-score (no concentration beside the values);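 active means both repeat wells score below -2 in polarization z-score versus plate sample wells, excluding overly bright wells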;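 further: 100 nL library stock added to about 30 µL; numbers are from one replicate; some results filed as inactive read as strong as hits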
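System – purified chicken nucleosomes with FITC-labelled LANA N-terminal peptide (1-23) · Amount – 240 nM purified chicken nucleosomes (480 nM peptide binding sites), final · Also added – 50 nM FITC-LANA1-23 probe · Medium – TEN-BT buffer, pH 7.5 · Incubation – compound with peptide–nucleosome mix 10–45 min at room temperature · Detection – fluorescence polarization, ex 480 nm, em 535 nm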
Ab BasE inh = blocks the Acinetobacter baumannii siderophore enzyme BasE; inhibition, % (concentration not given with the values); purified BasE, fluorescence polarization binding displacement; 0.1% of 84,000 active;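 active means both replicates above 25% with normal brightness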;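 further: 0% = negative plate control signal and 100% = positive plate control signal; stock transfer was 100 nL into about 30 µL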
The depositor's hits bear a star; · = not tested or not shown; & = joins results of further samples. Some of the compounds tested, so the mix of outcomes need not match the whole.

SMILES | KSHV LANA nucl | Ab BasE inh
Cc1ccc2c(c1)C1CC(C)(O2)N(Cc2ccccc2)C(=O)N1 (stereo unspecified) | -1.91 | 1.3
Cc1nn2c(=O)cc(COC(=O)C(Cc3ccccc3)NC(=O)c3ccccc3)nc2s1 (stereo unspecified) | · | -0.4
CC(=O)N(CC(C)C)c1nnc(-c2cccnc2)s1 | 0.45 | -1.8
Cc1ccccc1NCC1SC(=S)NC1=O (stereo unspecified) | · | -8.9
COc1ccc(/C=c2\s/c(=C(/C#N)C(=O)Nc3cccc(C(F)(F)F)c3)n(Cc3ccco3)c2=O)c(OC)c1OC | · | -6.3
CC1(C)Cc2c(c(N3CCOCC3)nc3sc4c(=O)[nH]cnc4c23)CS1 | 0.0015 | 0.4
COc1cc2nc[nH]c(=O)c2cc1OC | · | 0.5
O=C(CCC1CCCC1)OCC(=O)c1ccc2c(c1)OCO2 | · | -0.2
NC(=O)CCNS(=O)(=O)c1ccccc1 | 0.306 | -0.5
CC(C)C(=O)OCc1cc(=O)n2ccsc2n1 | -1.58 | 2.5
CCn1cc(C(=O)NCc2ccc(C)o2)c2cc(OC)c(OC)cc2c1=O | -0.474 | -0.8
CCOC(=O)c1cnc2cc(C(F)(F)F)ccc2c1Nc1c(C)n(C)n(-c2ccccc2)c1=O | -0.798 | 2.3

(continued)
SMILES | KSHV LANA nucl | Ab BasE inh
CN(C)/C=C/C=C1C(=O)CC(C)(C)CC1=O | 7.94 | 1.8
CSc1ncc(C(=O)OCc2ccc(C#N)cc2)n1-c1ccccc1 | · | 1.2
NS(=O)(=O)c1ccc(NC(=O)CSC2=NC(=O)C(Cc3ccccc3)C(=O)N2)cc1 (stereo unspecified) | -0.148 | 1.1
O=C1c2cccc3c(N4CCNCC4)ccc(c23)C(=O)N1c1ccc(Cl)cc1 | -1.59 | 36.4
CN(C(=O)CSc1nnc(-c2ccccc2)o1)c1c(N)n(Cc2ccccc2)c(=O)[nH]c1=O | · | 1.3
O=C1CCCC2=C1C(c1ccc(Cl)cc1)n1c(s/c(=C\c3cccnc3)c1=O)=N2 (stereo unspecified) | · | 1.1
O=c1[nH]c2ccccc2c2nncn12 | 0.605 | 2.5
O=C(NCc1ccc(F)cc1)NC1CC(=O)N(c2ccccc2)C1 (stereo unspecified) | -0.915 | 1.2
CCC(=O)Nc1ccccc1Cl | 0.265 | 2.3
Cc1c(C(=O)N2CCCC2)oc2c1-c1nn(CC(=O)NC(C)c3ccc4c(c3)OCCO4)cc1CC2 (stereo unspecified) | 0.584 | -0.9
N#CCSC1=N/C(=C/c2ccco2)C(=O)N1c1ccc(OC(F)F)cc1 | · | -12.2
O=C(CCS(=O)(=O)Cc1ccccc1)n1nnc2ccccc21 | -0.455 | 0.8

(cont.)
SMILES | KSHV LANA nucl | Ab BasE inh
Cc1ccc(C(=O)NCCc2cccs2)cc1 | -1.14 | -1.1
CC(=O)NCc1cccs1 | · | -0.2
COc1ccc(N=CN(C)C)cc1OC | · | -2.2
CCSc1nc2ccccc2c(=O)n1-c1c(C)n(C)n(-c2ccccc2)c1=O | · | -0.5
CCOc1ccc(NC(=O)C2CCN(C(=O)Cc3ccccc3)CC2)cc1 | 0.178 | -0.2
Cc1ccccc1CN1CCC(CN)CC1 | -0.46 | -1.6
CN(CCN1CCOCC1)C1CCN(C(=O)CNC(=O)/C=C/c2cccc(C(F)(F)F)c2)CC1 | 1.75 | -4.8
O=C(c1cccc2ccccc12)c1nc2c(n1O)CCCC2 | -1.34 | 1.9
COc1ccc(-c2coc3c(C)c4oc(=O)c5c(c4cc23)CCCC5)cc1F | · | -0.3
COC(=O)c1sccc1Oc1ccc(C(F)(F)F)cc1NC(=O)/C=C/C(=O)O | · | 4.9
C[C@]12CCC3c4ccc(O)cc4CCC3C1CCC2=O (stereo partly specified) | -0.419&0.425 | -1.1
CS(=O)(=O)N1Cc2ccccc2CC1C(=O)N1CCN(C(=O)c2cccs2)CC1 (stereo unspecified) | · | 1.0

Following part.
SMILES | KSHV LANA nucl | Ab BasE inh
COC(=O)CN1C(=O)c2cccnc2Sc2ccccc21 | 0.327 | -2.4
Cc1nc(-n2nnc3cc(C)c(C)cc32)c2c3c(sc2n1)CCCC3 | · | 0.0
O=C1c2ccccc2C(=O)N1Cc1nc2ncccc2[nH]1 | 0.434 | 1.7
CC(OC(=O)c1ccc(S(=O)(=O)N2CCCC2)cc1)C(=O)N1CCc2ccccc21 (stereo unspecified) | · | 3.7
NC(=O)OCC(COC(N)=O)c1ccccc1 | -0.116&0.0075 | ·
Cc1ccc(C2=NN(C(=O)COC(=O)Cn3nc(-c4ccccc4)oc3=O)C(c3ccco3)C2)cc1 (stereo unspecified) | · | 0.0
C=CCn1c(=N)c(C(=O)OC)cc2c(=O)n3cccc(C)c3nc21 | · | 3.5
CCCSc1nc2ccccc2n1CC(=O)N1CCN(Cc2ccccc2)CC1 | · | -1.5
O=C(O)c1ccc2c(c1)CCN2 | · | -1.9
Cc1cc2nc[nH]c2cc1C | 0.429 | -2.8
CC(C)N(C(=O)CSc1nnc(-c2cccnc2)n1Cc1ccccc1)C(C)C | -0.281 | -0.9
O=C(Cc1ccc(Cl)cc1)n1cc(Cl)cn1 | -0.902 | -0.9

(cont.)
SMILES | KSHV LANA nucl | Ab BasE inh
c1ccc(CN2CCOCC2)cc1 | · | 0.7
CCN(Cc1nc(-c2ccc(OC)c(OC)c2)no1)C(=O)Cc1cccc2ccccc12 | 0.258 | 2.2
COc1cc(OC)c(C2=NOC(C(=O)NCCCN3CCOCC3)C2)cc1Cl (stereo unspecified) | -0.884 | 0.0
COc1cccc(C(=O)Nc2ccc(N3CCCC3)cc2)c1 | -0.512 | 0.0
NC(N)=NC(N)=Nc1ccc(Cl)cc1Cl | -1.43 | -1.6
O=C(c1ccccc1)N1CCN(S(=O)(=O)N2CCCCCC2)CC1 | -0.6 | 0.6
CCN(CC)CCN1C(=O)C(=O)/C(=C(/O)c2ccc3c(c2)OCCO3)C1c1cccc(Cl)c1 (stereo unspecified) | -0.855 | 0.9
CCC1SC2=NCN(c3ccccc3)CN2C1=O (stereo unspecified) | · | 2.3
O=C(O)Cc1ccc2ocnc2c1 | -0.276 | ·
CC1=C(C(=O)OCc2ccccc2)C(c2ccccc2)NC(=O)N1C (stereo unspecified) | · | 1.3
C[C@]12CC[C@@H]3c4ccc(O)cc4CC[C@H]3[C@@H]1CCC2=O | 0.0825&0.0775 | -0.8
CCOC(=O)Cn1ncc(-c2ccccc2)c1N | -1.31 | 1.3

Carrying on:
SMILES | KSHV LANA nucl | Ab BasE inh
CC1=CC(C)(C)N(C(=O)NC2CCCCC2)c2ccccc21 | -0.828 | 1.0
O=C1NC2(CCCc3ccccc32)C(=O)N1CN1CCc2ccccc2C1 (stereo unspecified) | · | -0.5
CC(SCC(=O)N1CCN(c2ccccc2)CC1)C(=O)O (stereo unspecified) | · | -3.5
COC(=O)C(Cc1ccccc1)n1c(C)ccc1C (stereo unspecified) | · | 0.7
C=CCn1c(CNC=O)nc2ccccc21 | -0.09 | 0.8
COc1ccc(-c2ccc3ccccc3n2)cc1OC | -0.467 | ·
CC(C)Nc1nc(NC(C)C)nc(C(N)=O)n1 | 2.22 | -3.1
Cc1cc(C(=O)OCCOc2ccc(Br)cc2)c(C)o1 | · | 1.0
O=C1NC(=O)/C(=C/C(=O)N2CCCCC2)S1 | -0.479 | -1.9
CN1C(=O)C2(c3ccccc31)N(c1cccc(Cl)c1)C(=O)CS2(=O)=O (stereo unspecified) | · | -4.3
COC(=O)CCC(=O)c1ccc(Cc2ccc(C(=O)CCC(=O)OC)s2)s1 | -0.611 | 0.3
Cc1ccc(NC(=S)NCC2COc3ccccc3O2)cc1 (stereo unspecified) | · | 1.0

(list continues)
SMILES | KSHV LANA nucl | Ab BasE inh
CC1CCN(C(=O)COc2ccccc2Cl)CC1 | -0.951 | -1.9
COC(=O)/C=C1\SC(=Nc2ccc(Cl)c(Cl)c2)NC1=O | -1.32 | 0.9
CCOC(=O)N1CCN(c2nc3ccccc3nc2Nc2sc3c(c2C#N)CCCC3)CC1 | · | -11.6
CC(=O)N=c1sccn1CC(O)c1ccc(Br)cc1 (stereo unspecified) | · | -0.7
CC1CCCC(C)N1c1nn(C)c(=O)[nH]1 (stereo unspecified) | · | 1.1
COc1ccc2c(c1)C(c1ccc(N3CCOCC3)cc1)=NNC(c1cccnc1)=N2 | -0.683 | -1.1
Cn1c(CCCNC=O)nc2ccccc21 | -1.2 | 4.5
N#Cc1cc(C(=O)O)c(N)[nH]c1=O | · | 0.0
CCC(c1nnnn1CC1CCCO1)N(Cc1ccc2c(c1)OCO2)Cc1cc2cc(C)cc(C)c2[nH]c1=O (stereo unspecified) | -0.117 | 2.2
O=C(CC(=O)c1ccccc1O)c1ccc(Cl)cc1 | -0.664 | 0.9
O=C(COc1ccc(-c2nnco2)cc1)Nc1ccccc1Sc1ccccc1 | · | 1.8
O=C1CNc2ccc(C(=O)NCCC3=CCCCC3)cc2N1 | 0.681 | -0.4

Later entries:
SMILES | KSHV LANA nucl | Ab BasE inh
CCCC12CN3CC(CCC)(CN(C1)C(=O)c1ccccc1C3=O)C2=O | 1.08 | 0.1
O=c1[nH]c(=S)n(-c2cccc(Cl)c2)c2c1CN(C1CCCC1)CN2 | 0.582 | 3.4
CCN(CC)c1ccc2nnc(CCC(=O)N(CC)c3ccccc3)n2n1 | -1.33 | -0.4
CC(C)c1cccc(C(C)C)c1NC(=O)c1ccncc1 | -0.571 | 0.4
O=C(Cn1ccn(-c2ccc(F)cc2)c(=O)c1=O)Nc1ccccc1 | 0.851 | -0.8
CCCc1nc(C)c2c(=O)[nH]c(-c3cc(S(=O)(=O)N4CCN(CC)CC4)ccc3OCC)nn12 | 0.412&-0.0615&0.062 | ·
c1nc(NCCN2CCOCC2)c2nc3n(c2n1)CCCCC3 | -0.107 | -0.9
Cc1ccc(C)c(S(=O)(=O)Nc2ccc(C(=O)N3CC(C)OC(C)C3)cc2)c1 (stereo unspecified) | -0.391 | 1.8
CCc1c(C)nc2[nH]nc(NC(=O)C(F)(F)F)n2c1=O | -1.28 | 2.2
CCn1c(C(=O)NCCc2ccccc2)cc2sc(Cl)cc21 | 0.688 | -0.9
COc1ccc(F)cc1S(=O)(=O)N1CCN(c2c(C)cc(C)cc2C)CC1 | 0.291 | 1.2
COc1cc(C2C(=O)N(C3CCC(C)CC3)CC(=O)N2Cc2ccc3c(c2)OCO3)ccc1OC(C)C (stereo unspecified) | -0.526 | -1.4

Part of the list above in order of heavy-atom count, descending.
SMILES | KSHV LANA nucl | Ab BasE inh
COc1ccc(F)cc1S(=O)(=O)N1CCN(c2c(C)cc(C)cc2C)CC1 | 0.291 | 1.2
CCCC12CN3CC(CCC)(CN(C1)C(=O)c1ccccc1C3=O)C2=O | 1.08 | 0.1
O=C(Cn1ccn(-c2ccc(F)cc2)c(=O)c1=O)Nc1ccccc1 | 0.851 | -0.8
O=c1[nH]c(=S)n(-c2cccc(Cl)c2)c2c1CN(C1CCCC1)CN2 | 0.582 | 3.4
c1nc(NCCN2CCOCC2)c2nc3n(c2n1)CCCCC3 | -0.107 | -0.9

Following part
SMILES | KSHV LANA nucl | Ab BasE inh
O=C(Nc1ncn[nH]1)C(F)(F)C(F)F | 0.405 | -2.2
Cc1cc(C(=O)CSc2ccc(S(=O)(=O)N3CCCCC3)cn2)c(C)n1Cc1ccco1 | · | -0.6
CCOC(=O)CC1=NN=C(N)SC1 | · | 1.0
CCOc1ccc(N(/C=C2\Sc3ccccc3C2=O)C(=O)c2ccc(C)cc2)cc1 | · | -6.3
O=c1[nH]c(=S)[nH]c(O)c1C=NC12CC3CC(CC(C3)C1)C2 | 0.314 | -1.6
c1cc2c(cc1CNC1CCCC1)OCO2 | 0.661 | 0.6
Cc1ccc2cc3cc(C(=O)NCCCN4CC(C)CC(C)C4)oc3nc2c1 (stereo unspecified) | -0.0155 | -4.0
COc1ccc(-c2cc(C(=O)Nc3ccc(F)cc3)c(C(F)(F)F)o2)cc1 | · | 1.1
C=CCC(N)(CC=C)c1ccncc1 | 0.94 | -0.5
COC(=O)c1ccc2c(=O)[nH]c(COC(=O)c3oc4ccccc4c3C)nc2c1 | · | -0.4
O=C(CSc1nc(O)cc(=O)n1C1CCCC1)NC12CC3CC(CC(C3)C1)C2 | · | 3.3
CCOC(=O)c1cnn(-c2nnc(-c3ccccc3)c3ccccc23)c1/N=C/N(C)C | · | 3.0

Next section:
SMILES | KSHV LANA nucl | Ab BasE inh
CCn1c(=S)sc2nc(C)sc21 | 1.15 | -2.8
CC(C)(C)c1ccc2c(c1)c1c3n2CCN(CCC#N)C3CCC1 (stereo unspecified) | · | 2.1
NC(=O)c1ccc(NC(=O)COC(=O)Cc2cn3ccsc3n2)cc1 | · | -0.4
COc1ccc(NC(C)C(=O)NC2CCCCC2C)cc1 (stereo unspecified) | · | 1.1
COc1ccc(NC(=O)Cn2ccn(Cc3ccccc3)c(=O)c2=O)cc1 | 0.349 | 0.2
O=C(CSc1ccccn1)N(C1=CCCCC1)C1CC1 | · | 2.8
Cc1cccc(C)c1NC(=S)NCCC(=O)O | 0.169 | 2.7
CC(C)C(OC(=O)c1ccc(Cl)nc1)C(=O)NC1CCCCC1 (stereo unspecified) | 0.728 | -0.4
O=C1CC(c2nc(-c3ccccc3)no2)CN1c1ccccc1 (stereo unspecified) | -0.392 | -1.4
CC(=O)Oc1cc(C(C)C)c(OCCN(C)C)cc1C | 0.416 | -2.4
C=CCN=C1S/C(=C\N(C)C)C(=O)N1S(=O)(=O)c1ccc(C)cc1 | · | -1.8
Cn1c(COc2ccccc2)nnc1SCC(=O)N1CCc2ccccc21 | 1.03 | -0.2
CN(Cc1cccs1)C(=O)[C@H](Cc1ccccc1)NC(=O)c1ccco1 | · | 3.0
O=C(NC1CC1)c1cccc(NC(C(=O)N2CCOCC2)c2ccccc2)c1 (stereo unspecified) | · | -3.5
N#Cc1cnc(SCC(=O)NC(=O)Nc2ccccc2)nc1N | · | 2.9
